Vaccinia Venus = inhibitors of vaccinia virus (Venus reporter); Potency, µM (titrated, usually from 36.5 µM), without a hit: top-dose activity change, negative = inhibition, most hits filed as inhibitors; AID 720580; Vaccinia virus Venus reporter expression, fluorescence; 330,000 tested, 0.46% active; active means well fitted inhibition curve with a large enough effect; inconclusive means small, poorly fitted or top-dose-only effect; inactive means no such curve, though single readings can be large or run the other way; tested in A549 cells; note: nearly all actives have a fitted effect of over 30% in size; inactives centre near -10
Vaccinia mCherry = inhibitors of vaccinia virus infection (mCherry reporter signal). Vaccinia virus mCherry reporter infection, fluorescence; about a quarter of the inactives have no number. AID 720579. Potency, µM (highest dose often 36.5 µM), for inactives: at the top dose activity change, negative = inhibition, hits mostly inhibitors. 310,000 tested, 0.63% active; active = well fitted inhibition curve with a large enough effect; inconclusive = small, poorly fitted or top-dose-only effect; inactive = no such curve, though single readings can be large or run the other way; tested in A549 cells; note: nearly all actives have a fitted effect of over 35% in size; inactives centre near -10
Starred values were filed as active, the others as inactive; i = inactive; u = inconclusive; x = not tested or not shown; [ ] = another dose, or the depositor's remark. % is set by controls: 0 for no effect and ±100 for the full control effect; potency is the fitted concentration of half-maximal effect.

The line under a structure holds: Vaccinia mCherry, Vaccinia Venus
1: COc1ccc(S(=O)(=O)N(CC(=O)O)c2ccccn2)cc1
→ -16%, -10%
2: COc1ccc(OC)c(CNS(=O)(=O)c2c(C(=O)N3CCC(C)CC3)c(C)n(C)c2C)c1
→ -11%, -3%
3: Cc1cc(C)cc(C(=O)NN2CCN(C)CC2)c1
→ 5%, 3%
4: Cc1c(C#N)c(N=CN(C)C)c(C(=O)c2ccccc2)n1-c1ccc(Br)cc1
→ -1%, -4%
5: O=C(CCS(=O)(=O)c1cc2c3c(c1)CCN3C(=O)CC2)Nc1cccc(Br)c1
→ -13%, 0%
6: O=C(c1ccc2c(=O)n(CCc3ccccc3)c(=O)[nH]c2c1)N1CCN(c2ccccc2)CC1
→ -4%, -2%
7: CCC(=O)Nc1ccc2nc(SCC(=O)N3CCc4ccccc43)sc2c1
→ -13%, -2%
8: O=[N+]([O-])c1cccc(-c2nc(-c3ccccc3)c(-c3cccs3)[nH]2)c1
→ x, -18%
9: COC(=O)[C@@]1(Cc2ccc(OC)cc2)[C@H]2c3cc(C(=O)N4CCCC4)n(Cc4cc(C)n(C)n4)c3C[C@H]2CN1C(=O)c1ccccc1
→ 5%, -15%
10: O=C(c1cc(=O)c2ccccc2o1)N1CCN(c2ccccc2F)CC1
→ -28%, -29%
11: COCCCNC(=O)c1ccc(Cn2c(SCc3cccc(C)c3)nc3cccnc32)cc1
→ -18%, -18%
12: CCOC(=O)C1=C(c2ccccc2)Nc2ncnn2C1c1ccccn1 (centres undefined)
→ -3%, -9%
13: CN(Cc1ccc(Cl)cc1Cl)C(=O)C1CC(=O)N(Cc2ccco2)C1 (centres undefined)
→ i, -8%
14: COc1cc2c(cc1NC(=O)c1ccncc1)oc1ccccc12
→ -11%[1.46 µM], u
15: COc1cccc(NC(=S)N2CCC(c3ccc(C)cc3)C2)c1 (centres undefined)
→ i, -13%
16: CC#CP(=O)(OCC)C(O)(c1ccccc1)C(F)(F)F (centres undefined)
→ x, -31%
17: Cc1ccc(S(=O)(=O)CCC(=O)N2CCN(c3nc4c(C)c(C)ccc4s3)CC2)cc1
→ -24%, -15%
18: COc1ccc(Cl)cc1NC(=O)C/C(C)=N/NC(=O)C(=O)NCc1ccccc1
→ i, -9%
19: COc1ccc(/C=N\NC(=O)c2ccccc2Cl)cc1COc1c(F)c(F)c(F)c(F)c1F
→ u, u
20: Cc1ccc(OCC(=O)N(C)CC(=O)Nc2ccc(F)c(F)c2F)cc1
→ -21%, -15%

Brought forward from above: two entries; new compounds follow.
The line under a structure holds: Vaccinia mCherry, Vaccinia Venus
19: COc1ccc(/C=N\NC(=O)c2ccccc2Cl)cc1COc1c(F)c(F)c(F)c(F)c1F
→ u, u
20: Cc1ccc(OCC(=O)N(C)CC(=O)Nc2ccc(F)c(F)c2F)cc1
→ -21%, -15%
21: O=C(CC12CC3CC(CC(C3)C1)C2)N/N=C/c1ccc([N+](=O)[O-])o1
→ 11µM*, 28µM*
22: O=C(CCc1ccccc1)N1CCc2c([nH]c3ccccc23)C1c1ccc(F)cc1 (centres undefined)
→ -26%, -14%
23: COc1cc2[nH]c(=S)nc(NCCCOC(C)C)c2cc1OC
→ -13%, -9%
24: CCn1c(SC(C)C(=O)Nc2nnc(C)s2)nnc1-c1ccco1 (centres undefined)
→ -4%, -2%
25: COc1ccc(/C=C/C(=O)Oc2ccc(C=O)cc2OC)cc1
→ i, -4%
26: CC(C)Sc1nc2sc(-c3ccccc3)cc2c(=O)n1N
→ x, -4%
27: CCN(CC(=O)Nc1c(F)cccc1F)C(=O)c1ccc2c(=O)n3c(nc2c1)CCC3
→ -4%, -1%
28: CCSC(=S)Nc1c(C)n(C)n(-c2ccccc2)c1=O
→ -25%, -21%
29: c1cn2cc(-c3ccc(CN4CCOCC4)cc3)ccc2n1
→ -7%, -4%
30: COc1cccc(-c2csc(N3CCN(S(=O)(=O)c4ccc(F)cc4)CC3)n2)c1
→ i, -9%
31: CCOC(=O)NC(=O)/C(C#N)=N\Nc1cccc(Cl)c1
→ -17%, -14%
32: CCCc1cc(=O)[nH]c2nnc(SCC(=O)Nc3cc(C)on3)n12
→ -7%, 3%
33: COc1ccccc1NC(=O)CC(c1cc(OC)c(OC)c(OC)c1)N1Cc2ccccc2C1=O (centres undefined)
→ -9%, -3%
34: Cc1nc(C)c(C(=O)OCC(=O)Nc2cccc(C)c2C)s1
→ -11%, -6%
35: NC(=O)c1cc(S(=O)(=O)Nc2cccc(Cl)c2)cs1
→ -7%, -11%
36: CCOc1ccccc1N1CCN(S(=O)(=O)c2ccc(C3CCCCC3)cc2)CC1
→ -11%, -7%
37: Nc1nn(S(=O)(=O)c2cccc3nsnc23)cc1-c1ccc(Br)cc1
→ x, u
38: CCCCN(Cc1ccco1)S(=O)(=O)c1ccc(-c2ccc(=O)[nH]n2)s1
→ u, u
39: O=C(NC1CCCC1)c1nc2c(nnn2Cc2ccccc2Cl)c(=O)[nH]1
→ -16%, -17%
40: COc1ccc(C2=Cc3ccccc3C(CC(=O)C3CC3)N2c2ccc(-c3cc(OC)c(OC)c(OC)c3)cc2)cc1 (centres undefined)
→ 4%, -4%
41: Cc1ccc(S(=O)(=O)N2CCN(C(=O)CC(C)n3cncn3)CC2)cc1C (centres undefined)
→ -5%, -6%
42: COCC(C)n1c(SCc2cc(=O)n3cc(C)ccc3n2)nc2ccccc2c1=O (centres undefined)
→ -10%, 4%
43: COc1ccc(CNC(C)Cc2cccs2)cc1 (centres undefined)
→ -10%, -3%
44: N#Cc1ccc(Oc2cnccn2)cc1
→ i, -17%
45: CCc1nnc(NC(=O)CSc2nnc(CNC(=O)c3ccccc3)o2)s1
→ i, -13%
46: O=C1C(NS(=O)(=O)c2cccs2)=C(N2CCN(c3ccccc3)CC2)C(=O)c2ccccc21
→ x, 7%
47: COCc1cc(C)nc2sc(C(=O)N3CCN(c4ccccc4)CC3)c(N)c12
→ u, -15%
48: CCOC(=O)C1=C(C)N=c2sc(=Cc3cc(Cl)c(OCC(=O)O)c(Cl)c3)c(=O)n2C1c1cccc(OC)c1 (centres undefined)
→ -26%, 10%
49: Cc1occc(=O)c1OCc1ccccc1
→ 0%, -4%
50: COC1OC(O)C(NC(=O)C(F)(F)F)CC1O (centres undefined)
→ -13%, 2%
51: CSc1ccc(C(O)c2ncc(-c3cccc(F)c3)[nH]2)cc1 (centres undefined)
→ 26%, -4%
52: O=C(NC1CC(=O)N(c2ccc3c(c2)OCCO3)C1)c1c(F)cccc1Cl (centres undefined)
→ -11%[7.34 µM], -9%[7.34 µM]
53: O=C(Nc1ccccc1)N1CCCC2CCCCC21 (centres undefined)
→ x, u
54: CCOC(=O)C1CCCN(C(=S)Nc2ccc(Nc3ccccc3)cc2)C1 (centres undefined)
→ -10%, 1%
55: Cc1ccc2[nH]c(=O)c3cc(C(=O)N4CCN(c5ccccc5)CC4)sc3c2c1
→ 12%, 0%
56: CC(C(=O)OCC(=O)c1c(N)n(C)c(=O)n(C)c1=O)N1C(=O)c2ccccc2C1=O (centres undefined)
→ -17%, -5%
57: Cn1c(CCCNC(=O)c2ccccc2)nc2ccccc21
→ -23%, -5%
58: CC(C)(C)[C@@H]1C=C(C(=O)N2CCOCC2)O[C@H](OCc2ccc(CO)cc2)C1
→ i, -2%
59: CCC(O)CNC(=O)CCc1nnc(C2(c3ccc(Cl)cc3)CCC2)o1 (centres undefined)
→ -9%, -6%
60: Cc1c2c(cc3c1[nH]c1ccccc13)C=NCC2
→ u, -28%
61: NC(=O)c1ccc(NC(=O)CCc2nc3sc4c(c3c(=O)[nH]2)CCCC4)cc1
→ 0%, -14%
62: CCc1ccc(NCc2cc3cc4c(cc3n(CC(=O)Nc3ccc(C)cc3)c2=O)OCO4)cc1
→ -9%, 2%
63: COc1cc(OC)c(N(C)C(=O)c2cn(C)c(=O)c3cc(OC)c(OC)cc23)cc1Cl
→ -14%, -9%
64: O=C(Nc1ccccc1)c1nn(-c2ccccc2)c(=O)cc1C(F)(F)F
→ x, 9%
65: CC1CCCCC1NC(=O)CCS(=O)(=O)c1ccc2c(c1)NC(=O)CS2 (centres undefined)
→ i[7.34 µM], -13%[7.34 µM]
66: Cc1cc(C(=O)NCc2ccccc2F)c2ccccc2n1
→ i, -7%
67: CC(NC(=O)CCC(=O)c1ccc(F)cc1)C1CC2CCC1C2 (centres undefined)
→ -12%, -19%
68: CCCC(=O)N1CCN(c2ccc(NC(=O)c3ccc([N+](=O)[O-])o3)cc2Cl)CC1
→ 10µM*, u
69: CC(C)CC1NC(C(=O)O)Cc2c1[nH]c1ccccc21 (centres undefined)
→ -11%, -12%
70: Cc1ccc(-c2nc3c(C)cc(Br)cn3c2Cc2ccsc2)cc1
→ -5%, -15%
71: CCOc1ccc(CCNC(=O)C2CCCN(S(C)(=O)=O)C2)cc1OCC (centres undefined)
→ i, -14%
72: COC(=O)c1ccccc1NC(=O)NCc1ccccn1
→ -16%, -12%
73: CN(C)c1ccc(C(=O)OCc2ccc(Br)cc2)cc1
→ x, -14%
74: COC(=O)[C@]12CCCCC=C1N(Cc1ccc(Cl)cc1Cl)C(=O)[C@H](CC(=O)N1CCCCC1)C2
→ 12%, 9%
75: Cc1ccc(CNC(=O)c2ccc(N3CCC4(CC3)CC(c3cccc(Br)c3)=NO4)c(NC(=O)c3cccc(C)c3)c2)cc1
→ -8%, 2%
76: Cc1ccc(C)n1-c1nnc(N2CCCC(C(=O)Nc3ccccc3Br)C2)s1 (centres undefined)
→ -2%, -13%
77: Cc1cccc(NC(=O)CSCC(=O)N(C)Cc2ccc3c(c2)OCCO3)c1
→ -21%, -13%
78: O=C(Nc1cc(-c2ccccc2)nn1C1CCCCC1)c1ccc(Cl)cc1
→ i, -9%
79: CCOC(=O)N1CCN(C(=O)CSc2nc3c(c(=O)n2-c2ccccc2OC)SCC3)CC1
→ x, -17%
80: C[C@H](CO)N1C[C@H](C)[C@@H](CN(C)Cc2ccncc2)Oc2c(NS(=O)(=O)c3ccccc3)cccc2C1=O
→ -5%, -9%

In the list so far, these contain a furan ring, fused or not:
The line under a structure holds: Vaccinia mCherry, Vaccinia Venus
13: CN(Cc1ccc(Cl)cc1Cl)C(=O)C1CC(=O)N(Cc2ccco2)C1 (centres undefined)
→ i, -8%
14: COc1cc2c(cc1NC(=O)c1ccncc1)oc1ccccc12
→ -11%[1.46 µM], u
21: O=C(CC12CC3CC(CC(C3)C1)C2)N/N=C/c1ccc([N+](=O)[O-])o1
→ 11µM*, 28µM*
24: CCn1c(SC(C)C(=O)Nc2nnc(C)s2)nnc1-c1ccco1 (centres undefined)
→ -4%, -2%
38: CCCCN(Cc1ccco1)S(=O)(=O)c1ccc(-c2ccc(=O)[nH]n2)s1
→ u, u
68: CCCC(=O)N1CCN(c2ccc(NC(=O)c3ccc([N+](=O)[O-])o3)cc2Cl)CC1
→ 10µM*, u

(continued)
The line under a structure holds: Vaccinia mCherry, Vaccinia Venus
81: O=S(CC(O)COCc1ccc(Cl)cc1)c1ccccn1 (centres undefined)
→ i, -18%
82: O=C(NC1CCN(Cc2ccccc2)CC1)C1CCN(S(=O)(=O)c2cccc([N+](=O)[O-])c2)CC1
→ i, -11%
83: CC1(C)CC(NC(=O)c2ccc(Br)o2)CC(C)(C)N1
→ i, -9%
84: CCOC(=O)CCc1c(C)nc(-n2[nH]c(C)c(CCO)c2=O)[nH]c1=O
→ 0%, 5%
85: COc1ccc(-n2ccnc(NCc3ccc(Cl)cc3)c2=O)cc1
→ -2%, -19%
86: CC1CCCN(S(=O)(=O)c2ccc(NC(=O)CN3C(=O)NC(C)(c4ccccc4)C3=O)cc2)C1 (centres undefined)
→ -22%, -18%
87: CCOc1ncccc1C(=O)OCc1ccc([N+](=O)[O-])cc1
→ 5%, 2%
88: O=C(CSc1ccccc1F)NC(=O)NCc1ccco1
→ i, -4%
89: CCOC(=O)c1cnn(-c2nc(CC)nc3sc4c(c23)CCC4)c1N
→ -8%, 8%
90: CC(C)(C)C1(O)CC(C(F)(F)F)=NN1C(=O)CCCc1ccccc1 (centres undefined)
→ i, -3%
91: COc1cccc(-n2c(SC)nnc2C2CCN(Cc3cccc(OC)c3O)CC2)c1
→ -7%, 1%
92: CC(C)c1nnc(NC(=O)CCC(=O)N2CCN(C3CCCCC3)CC2)s1
→ i, -7%
93: Cc1c(NC(=O)CCN2C(=O)c3ccccc3C2=O)c(=O)n(-c2ccccc2)n1C
→ x, -20%
94: Cc1ccc(/C=C/C(=O)c2ccc(O)cc2)cc1
→ 11µM*, -26%
95: O=C(N/N=C/c1cn[nH]c1-c1ccccc1)c1ccco1
→ i, -16%
96: COC(=O)c1scc(C)c1NC(=O)/C=C/C(=O)O
→ -13%, -3%
97: CCCCNC(=S)NNC(=O)c1cc(-c2ccncc2)nc2ccccc12
→ -21%, -15%
98: COc1ccc(CNc2oc(-c3ccc(COc4ccc(OC)cc4)o3)nc2C#N)cc1
→ -14%, 0%
99: NC(=O)CCCn1c(C(=O)c2cc(Cl)c(N)c(Cl)c2)c2ccc(C(F)(F)F)cc2[n+]1[O-]
→ -13%, -12%
100: Cc1ccccc1NC(=O)N1CCC(CN2CCCC2)CC1
→ -6%, -7%
101: CCCCN1CC(=O)N2[C@H](c3ccc(Cl)cc3)[C@@H]3C(=O)N(CC)C(=O)[C@@H]3[C@]2(Cc2ccccc2)C1=O
→ i, -11%
102: COc1ccc(OCC(=O)Nc2cccc(C(C)=O)c2)cc1
→ -13%, u
103: O=C(N/N=C/c1cccnc1)c1cc(-c2ccccc2)nc2ccccc12
→ -12%, 3%

Record cards (already shown). Order of screens: Vaccinia mCherry	Vaccinia Venus
Profile of `O=C(CSc1ccccc1F)NC(=O)NCc1ccco1` = i	-4%
Profile of `COC(=O)c1scc(C)c1NC(=O)/C=C/C(=O)O` = -13%	-3%
Profile of `COc1cccc(-n2c(SC)nnc2C2CCN(Cc3cccc(OC)c3O)CC2)c1` = -7%	1%
